Assay outcomes: PubChem, several laboratories
Arbovirus anti: antivirals against arbovirus infection | 200,000 compounds, 0.37% hits | arbovirus infection cell-based antiviral screen | inhibition, % at 10 µM | AID 1251;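 active means inhibition from about 30%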;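 further: bluetongue infection of BSR cells; cell survival read as ATP light after 72 h; 0% = infected wells without compound and 100% = uninfected wells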
Mtb betalactam: beta-lactam sensitization of Mtb H37Rv; inhibition, % at 25 µM; 330,000 compounds, 0.27% hits; M. tuberculosis H37Rv growth with meropenem, percent inhibition; hits of this screen are not shown here;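 active means about 74% or more and at least 40 points above the plate without the antibiotic, then above 30% in a dose series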;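 further: growth measured after seven days incubation then overnight dye step; 0% = bacteria only wells and 100% = bacteria with antibiotic; twin plates without the antibiotic show which effects depend on it; some results filed as inactive read as strong as hits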
Mtb growth: M. tuberculosis H37Rv growth inhibitors, H37Rv strain (AID 1626); M. tuberculosis H37Rv growth inhibition; higher % means a stronger effect; inhibition, % at 10 µM; hits with a dose series show IC50 in µM; 220,000 compounds, 0.95% hits;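 active means confirmed in a dose series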;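 further: bacteria incubated seven days before Alamar blue readout; 0% = bacteria only wells and 100% = bacteria with antibiotic wells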
YopH inh: blocks Yersinia enterocolitica YopH tyrosine phosphatase. fluorescence Ex485/Em525. inhibition, %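 (about 10 µM by stock and volumes)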. 140,000 compounds, 0.16% hits. AID 898;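 active means inhibition of 50% or more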;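 further: controls were vehicle for no effect and minimum signal wells for full effect; inactives centre near -20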
RecA intein inh: blocks M. tuberculosis RecA intein splicing. AID 2221. cell-free RecA intein splicing, fluorescence. 290,000 compounds, 0.75% hits. inhibition, %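 (about 9 µM by stock and volumes)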; in the data active means inhibition above about 30%;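 further: 0% = vehicle wells and 100% = reference inhibitor control wells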
Target sequence (P9WHJ3 whole entry, looked up): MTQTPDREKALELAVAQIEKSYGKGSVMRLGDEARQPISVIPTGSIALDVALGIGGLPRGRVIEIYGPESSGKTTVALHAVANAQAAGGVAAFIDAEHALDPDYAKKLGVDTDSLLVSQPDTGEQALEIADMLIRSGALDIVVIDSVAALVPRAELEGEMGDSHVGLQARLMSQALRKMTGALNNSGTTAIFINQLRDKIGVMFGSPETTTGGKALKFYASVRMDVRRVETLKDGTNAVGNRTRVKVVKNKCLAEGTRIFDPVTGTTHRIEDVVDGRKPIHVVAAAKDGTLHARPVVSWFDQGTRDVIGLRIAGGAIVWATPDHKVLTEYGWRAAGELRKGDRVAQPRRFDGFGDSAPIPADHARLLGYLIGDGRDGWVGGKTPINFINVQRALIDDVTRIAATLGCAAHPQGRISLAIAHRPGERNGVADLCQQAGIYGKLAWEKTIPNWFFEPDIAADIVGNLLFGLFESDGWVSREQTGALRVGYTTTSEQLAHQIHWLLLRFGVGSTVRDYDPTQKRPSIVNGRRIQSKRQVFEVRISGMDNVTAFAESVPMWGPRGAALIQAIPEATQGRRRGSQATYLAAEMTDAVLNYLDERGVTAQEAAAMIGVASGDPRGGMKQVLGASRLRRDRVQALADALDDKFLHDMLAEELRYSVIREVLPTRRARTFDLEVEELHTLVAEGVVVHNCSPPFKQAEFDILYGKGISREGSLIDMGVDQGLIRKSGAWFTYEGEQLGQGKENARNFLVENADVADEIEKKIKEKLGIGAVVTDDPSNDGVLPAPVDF
Arbovirus anti repeat: recorded beside Arbovirus anti, whose call it bears; inhibition, %; measured here: 10K subset replicate screen; many hits read low in the repeat;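 first of two repeat runs on a subset; 0% = infected and 100% = uninfected wells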
* marks the source's active call; other numbers are inactive results; x = not tested or not shown.

SMILES	Arbovirus anti	Mtb betalactam	Mtb growth	YopH inh	RecA intein inh	others
O=[N+]([O-])c1ccc2c(c1)Nc1nc3ccccc3nc1N2	x	1.4	x	x	-13.1
O=P(CCO)(c1ccccc1)c1ccccc1	2.2	1.7	3.8%	x	-2.5
O=C1CCCN1CCCNC(=S)Nc1ccc(Cl)cc1Cl	5.1	0.1	-6.7%	x	-1.0
CCc1ccc(CNC(=O)C2Cc3cc(S(=O)(=O)N4CCCC4)ccc3N2C(C)=O)cc1 (centres undefined)	x	-5.7	x	x	-0.9
CCc1ccccc1N(C(C)=O)c1nc(CN=C=S)cs1	1.3	10.5	7.0%	x	-0.3
O=C(CSc1nc2ccccc2s1)NC1CCS(=O)(=O)C1 (centres undefined)	1.7	-2.4	-5.8%	-2.4	-3.6
O=C(NCCCn1ccnc1)c1cc2c(s1)CCCC2	x	-14.9	x	x	1.0
CCC[C@@H](OS(N)(=O)=O)[C@@H](Cc1ccccc1)C(=O)OCC	x	8.5	x	x	-5.7
CCN(CCNC(=O)c1ccc2nc(-c3ccccc3NC(C)=O)c(=O)[nH]c2c1)c1ccccc1	-3.9	2.4	6.2%	-11.5	-0.4
CC(C)CC(=O)Nc1ccccc1-c1nnn(CC(=O)N2CCc3ccccc3C2)n1	-5.8	11.9	-2.5%	-3.5	2.6
COc1ccc(NS(=O)(=O)NC(=O)c2cn(C)c3ccccc23)cc1	x	1.7	x	x	1.4
O=C(CN1CCN(c2ccccn2)CC1)Nc1ccc(Cl)c(C(F)(F)F)c1	-1.4	x	-5.3%	-35.2	-0.6
COc1ccc(N(Cc2cc3cc(OC)ccc3[nH]c2=O)C(=O)c2cccnc2)cc1	-4.3	5.3	-11.8%	-50.0	x
CSCCC(NS(=O)(=O)c1ccccc1F)C(=O)N1CCCCCC1 (centres undefined)	x	1.2	x	x	0.9
COc1cccc(C(=O)NCc2nnc(SCC(=O)Nc3nccs3)n2-c2cccc(C)c2)c1	-2.4	-5.7	-4.9%	-3.7	-0.6
O=C(O)CCc1ccc(-c2cccs2)n1NC(=O)c1cccs1	3.0	-5.4	11.1%	x	-0.4
CCOC(=O)c1ccc(N2C(=O)c3n[nH]c(C)c3C2c2cccnc2)cc1 (centres undefined)	2.0	-3.1	-3.0%	-32.2	-3.3
O=C(/C=C/c1ccccc1)NCC(=O)N/N=C/c1ccccc1[N+](=O)[O-]	-9.1	-1.1	-2.8%	x	-1.5
COc1ccc(/C=C(\NC(=O)c2ccc(OCC(C)C)cc2)C(=O)OCc2ccco2)cc1	3.6	-4.5	15.2%	-30.1	6.6
N#CN(Cc1ccccc1)Cc1ccccc1	x	15.8	3.3%	x	-13.2
Cc1nc2c(sc(=S)n2Cc2ccco2)c(=O)n1CC(=O)Nc1cc(F)ccc1F	x	0.6	x	x	-0.3
CC(C)C[C@H](NC(=O)c1nc[nH]c1C(=O)N1CCN(C(=O)OC(C)(C)C)CC1)C(=O)OC(C)(C)C	32.5*	-5.2	-4.7%	x	-0.6
CN(C)c1cccc(C(=O)N(C)C2CCCN(Cc3ccccc3F)C2)c1 (centres undefined)	x	-6.7	x	x	0.7
O=C(NCCCN1CCN(c2ccccc2)CC1)C1CCCN(c2ncnc3c2nc2n3CCCCC2)C1 (centres undefined)	x	5.0	x	x	-0.7
COc1ccc(OC)c(/C=C2/Sc3ccccc3C2=O)c1	-8.7	7.8	1.7%	x	-0.5
SMILES	Arbovirus anti	Mtb betalactam	Mtb growth	YopH inh	RecA intein inh	others
C=CCn1c(COc2ccccc2)nnc1SCC(=O)Nc1ccc(S(N)(=O)=O)cc1	5.7	-2.3	1.4%	-9.9	-1.1
Cn1ncc2cc(NC(N)=S)ccc21	3.5	41.7	-6.1%	x	-4.6
O=c1[nH]c2ccccc2n1Cc1ccc(F)cc1	-0.8	-1.2	x	x	-0.1	Arbovirus anti repeat=9.6
Cc1ccc2cc(CCNC(=O)CC(C)C)c(=O)[nH]c2c1	17.8	1.0	3.5%	-16.0	-3.1	Arbovirus anti repeat=-2.6
O=C(Nc1ccc(N2CCCC2)cc1)c1cccc(F)c1	-11.1	-3.7	6.8%	-32.6	-0.3
O=C(CSc1nnc(NCc2ccccc2)s1)c1ccco1	0.7	-0.6	-17.8%	-26.4	-10.5
CCN(C(=O)Cc1c(C(=O)O)[nH]c2ccccc12)c1cc(OC)ccc1OC	6.7	2.4	-2.1%	-23.0	3.5
COc1cccc(CCN2CCC(CNS(=O)(=O)c3cc(-c4cc(C)no4)ccc3C)CC2)c1	x	31.6	x	x	1.6
O=[N+]([O-])c1ccc(N2CCN(Cc3ccc(Br)o3)CC2)cc1	x	-1.5	x	x	1.2
O=C(Nc1cccc(O)c1)c1cnn2cccnc12	3.6	36.9	63.3%	-25.1	0.9
CCN(CC)C(=O)COc1coc(CN2CCN(c3ccc(F)cc3)CC2)cc1=O	x	1.9	x	x	-0.2
CN(CCO)CC(O)Cn1cnc2c1c(=O)n(C)c(=O)n2C (centres undefined) (tested in a mixture with another compound)	11.9	2.0	5.2%	-33.7	-1.7
Cc1ccc(C(=O)NCCN2C3=NC[C@@H](Cc4ccccc4)N3C[C@H]2Cc2ccc(O)cc2)cc1Br	-21.9	99.9	40.7%	x	8.9
CCOC(=O)CSCC(NC(=O)OC(C)(C)C)C(=O)OCC (centres undefined)	6.9	0.1	1.9%	-44.1	5.8
CC(C)(O)CNC(=O)Nc1ccc(Cl)c(Cl)c1	x	-4.6	-11.4%	x	0.1
O=C(NCCCNC(=O)c1ccc(Cl)cc1Cl)c1ccco1	x	-10.3	x	x	0.5
Cc1c(Cc2ccccc2)c(=O)oc2c(C)c(OCC(=O)N3CCC(C(=O)O)CC3)ccc12	x	-8.2	x	x	0.6
Clc1ccc(COn2nnc3ccccc32)c(Cl)c1	-6.9	-5.0	3.1%	-3.3	8.5
O=c1c(Oc2ccccc2F)coc2cc(OCc3cnn(-c4ccccc4)c3)ccc12	-5.8	-7.1	5.9%	3.0	-0.1
CC1CC(C)(C)N2C(=O)C3(Nc4ccccc4S3)c3cccc1c32 (centres undefined)	-23.2	-5.5	2.9%	-4.1	-4.2
CCc1ccc(Nc2nnc(SCC(=O)Nc3ccc(C(=O)O)cc3)s2)cc1	x	0.0	-5.8%	x	-0.4
C/C(O)=C\c1nc(=O)c2c(C)cc(C)nc2n1-c1ccccc1	-0.1	0.3	-1.1%	5.2	4.4
CC1(C)CC(=O)C2=C(C1)Nc1ccccc1NC2c1cccs1 (centres undefined)	-0.1	2.2	-7.9%	x	-0.5
Cn1c(SCc2c(F)cccc2Cl)nc2c(c1=O)SCC2	-7.5	12.7	5.6%	x	2.2
CCOc1cccc(/C(O)=C2/C(=O)C(=O)N(CCN3CCOCC3)C2c2ccncc2)c1 (centres undefined)	7.2	-14.2	-12.2%	x	-0.7

Of the compounds above, these contain a Cl atom.
SMILES	Arbovirus anti	Mtb betalactam	Mtb growth	YopH inh	RecA intein inh	others
O=C1CCCN1CCCNC(=S)Nc1ccc(Cl)cc1Cl	5.1	0.1	-6.7%	x	-1.0
O=C(CN1CCN(c2ccccn2)CC1)Nc1ccc(Cl)c(C(F)(F)F)c1	-1.4	x	-5.3%	-35.2	-0.6
CC(C)(O)CNC(=O)Nc1ccc(Cl)c(Cl)c1	x	-4.6	-11.4%	x	0.1
O=C(NCCCNC(=O)c1ccc(Cl)cc1Cl)c1ccco1	x	-10.3	x	x	0.5
Clc1ccc(COn2nnc3ccccc32)c(Cl)c1	-6.9	-5.0	3.1%	-3.3	8.5
Cn1c(SCc2c(F)cccc2Cl)nc2c(c1=O)SCC2	-7.5	12.7	5.6%	x	2.2

Going on with the list.
SMILES	Arbovirus anti	Mtb betalactam	Mtb growth	YopH inh	RecA intein inh	others
N#Cc1ccc(CSc2nnc(-c3ccccn3)n2-c2ccccc2)cc1	0.9	-2.5	1.7%	5.2	0.0
O=S(=O)(Cc1ccccc1)Nc1cccc(Br)c1	x	5.0	x	x	2.7
CCC1CCCCN1C(=O)CSc1nnc(CNC(=O)c2ccco2)o1 (centres undefined)	0.2	-5.9	-9.7%	26.9	2.5
O=c1c2ccccc2nc(SCCN2CCCCC2)n1CCc1ccccc1	-31.5	3.2	1.9%	x	0.4
CC1=NN(c2ccc(Cl)c(C(=O)O)c2)C(=O)/C1=C\c1ccc(-c2ccc(C(=O)O)cc2)o1	2.0	x	-1.0%	x	36.5*
CC(=O)N(CCOc1ccccc1)CCOc1ccccc1	x	-1.5	x	x	1.2
Cc1cc(C)c2nc(SC(C)C#N)cc(C)c2c1 (centres undefined)	-10.6	16.3	9.9%	4.9	-4.9
CS(=O)(=O)N(Cc1ccc(C(=O)N2CCc3ccccc3C2)cc1)c1ccccc1	-1.5	-12.4	-7.4%	x	1.8
Nc1nc2sc3c(c2cc1C(=O)NCC(=O)O)CCCC3	x	5.0	x	x	-0.8
CCc1cccc(CC)c1NC(=S)Nc1ccc2cn[nH]c2c1	x	14.4	-9.2%	x	4.0
CCn1c(=O)cc(OCC(=O)N2CCCC2)c2ccccc21	-1.7	-0.2	-10.2%	-36.4	-1.8
O=C(N/N=C/C(c1ccccc1)c1ccccc1)c1ccccc1F	-2.1	65.8	1.0%	x	-7.3
COc1ccc2c(c1)N(C)/C(=C1/SC(=NCc3ccccc3)N(c3ccccc3)C1=O)S2	-12.0	-5.2	-2.8%	-20.1	-3.6
CCOC(=O)C1CCN(C(=O)CN(C)S(=O)(=O)c2ccc3c(c2)c(=O)n(C)c(=O)n3C)CC1	x	-5.6	x	x	0.5
CC(C)(NC(=O)N1CCOCC1)c1cccc(C(C)(C)NC(=O)N2CCOCC2)c1	x	-4.0	-17.2%	-13.5	x
COc1ccc(COC(=O)c2n[nH]c3ccccc23)cc1F	7.0	-6.5	-7.8%	13.2	2.1
C=CCNC(=O)c1c(Cl)cnn1-c1ccc(C)cc1	0.0	2.1	4.9%	x	x
CC(C)(Cc1cc(CC(C)(C)C(=O)O)cc(C(C)(C)C)c1)C(=O)O	x	1.6	x	x	0.3
O=C1CN(C(=O)COC(=O)c2oc3ccccc3c2COc2ccccc2)c2ccccc2N1	-2.2	1.6	5.9%	-13.2	-0.9
N=C1/C(=C\c2coc3ccc(O)cc3c2=O)C(=O)N=C2SC=CN12	x	-2.6	-5.3%	x	1.6
O=S(=O)(c1ccc(-c2ccccc2)cc1)N1CCCCC1	x	-5.9	x	x	1.2
CC(C)Cn1c(-c2cccs2)nc2ccccc21	11.0	0.6	-8.7%	-0.3	x
CC1(C)CC(=O)c2cc(C(=O)NCc3ccco3)c(=O)n(-c3ccc(Cl)cc3)c2C1	-1.9	0.9	2.9%	-1.2	3.8
COc1ccc2cc3cc(C(=O)NCCCN4CCc5ccccc5C4)sc3nc2c1	-20.9	20.0	16.3%	-18.2	-10.8
O=C(CBr)N1CCc2ccccc2C(c2ccccc2)C1 (centres undefined)	x	-5.6	1.4%	x	3.5

Among those listed so far, three have a cyano group:
SMILES	Arbovirus anti	Mtb betalactam	Mtb growth	YopH inh	RecA intein inh	others
N#CN(Cc1ccccc1)Cc1ccccc1	x	15.8	3.3%	x	-13.2
N#Cc1ccc(CSc2nnc(-c3ccccn3)n2-c2ccccc2)cc1	0.9	-2.5	1.7%	5.2	0.0
Cc1cc(C)c2nc(SC(C)C#N)cc(C)c2c1 (centres undefined)	-10.6	16.3	9.9%	4.9	-4.9

Next part.
SMILES	Arbovirus anti	Mtb betalactam	Mtb growth	YopH inh	RecA intein inh	others
O=C(Nc1ccc(F)cc1F)c1ccc2ncsc2c1	x	1.6	x	x	-0.1
COc1ccc(C(CC(=O)N2CCN(c3ccccc3)CC2)c2c(O)cc(OC)cc2OC)cc1 (centres undefined)	x	-8.9	-3.8%	x	6.0
COc1ccc(/C=N/Nc2nnc(Cc3ccccc3)c(=O)[nH]2)cc1OC	x	0.1	-6.0%	x	-4.3
CCCNC(=O)C(=O)NCc1ccccn1	-1.9	1.2	5.1%	x	-0.9
CNC(=O)COC(=O)c1cc2c(C)nn(-c3ccc(F)cc3)c2s1	2.8	x	1.6%	-33.0	-1.1
COc1ccc(S(=O)(=O)N2CCCC(C(=O)NCc3ccc4c(c3)OCO4)C2)cc1 (centres undefined)	x	-1.1	-7.7%	x	-0.4
COc1ccccc1-n1c(SCC(=O)NC2CCCC2)nc2cccnc21	4.2	-2.7	-1.0%	-33.2	1.6
O=C(NC1CC1)C1=C[C@@H](C2CCCCC2)C[C@@H](OCCCCO)O1	0.8	0.5	1.3%	x	2.5
Cc1nc2ccccc2c(=O)n1CCCn1ccnc1	0.4	0.0	-6.1%	-13.2	-9.4
COC(=O)C1=CN(c2ccc(F)c(F)c2)C=C(C(=O)OC)C1c1ccc([N+](=O)[O-])cc1	x	3.8	x	x	6.6
O=C(NCCN1CCOCC1)c1cc(-c2cccc(O)c2)on1	x	2.2	x	x	-1.5
COc1ccc(C2=NN(C(=O)c3cccs3)C(c3ccccc3OC)C2)cc1OC (centres undefined)	-6.0	23.6	0.3%	x	-0.2
O=C(/C=C/c1ccccc1O)c1ccc(Cl)cc1	-37.2	97.7	14.4µM*	x	1.8

A portion of the library; the hit share may differ from the screen's.
